Anaer choline gr – choline-fed anaerobic bacterial growth inhibition. calls only. Gram-negative bacterium anaerobic choline minimal medium, absorbance growth; active compounds read low; many inactives read as strong as hits in the columns shown. AID 1963822. hit rate 0.2% among 55,000;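 active = growth z-score on choline under -2 at 7 or 20 h with little or no fall on glycerol, limits in tiers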;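 also: stock transfer was 300 nL into about 50 µL; the organism is E. coli; final concentration not given here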
Anaer choline gr early – further read-out of Anaer choline gr, marked with its call; z-score; measured here: choline growth z-score, timepoint 1;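 score of optical density at 7 h as mean of two plates; lower means less growth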
* = called active by the depositor; i = inactive; & = joins results of further samples.

molecule	Anaer choline gr	Anaer choline gr early
O=C(C1CCN(S(=O)(=O)c2ccc3[nH]c(=O)ccc3c2)CC1)N1CCN(c2ccccc2F)CC1	i	-0.48
Cc1cc(N2CCOCC2)n2nc(Cc3ccccc3)nc2n1	i	-1.3
CCOC(=O)N1CCC2(CC1)N=C(c1ccc(F)cc1)CC(c1cc(Cl)ccc1O)N2 (configuration not stated)	i	-2.9
CCCNC(=O)c1ccc2c(=O)n(Cc3ccccc3)c(SCc3cccc(OC)c3)nc2c1	i	1.8
O=C(Cn1cnc2ccccc2c1=O)NCC(=O)N1CCN(c2ccccn2)CC1	i	1
CCOc1ccc(OCC)c(Nc2nc3ccccc3c3nncn23)c1	i	1.5
CC1(C)CC(=O)c2cc(C(=O)Nc3ccccc3Cl)c(=O)[nH]c2C1	i	0.74
O=C(Cn1nc(C(=O)Nc2ccccc2)ccc1=O)Nc1cccc(Cl)c1	i	1.8
CCC(=O)N1CCCC1c1nc2ccccc2[nH]1 (configuration not stated)	i	-1
CCn1nc(C)c(CCN(C)C(=O)Nc2cc(OC)cc(OC)c2)c1C	i	0.31
O=C(NCCc1c[nH]c2ccccc12)c1ccccc1F	i	-0.25
COc1ccc(-n2cc(C(=O)Nc3cnc4ccccc4c3)nn2)cc1	i	-0.33
Cc1ccc(S(=O)(=O)n2nc(-c3ccccc3)nc2N)cc1	i	0.28
Cc1cc(NC(=O)C2CC(c3c(F)cccc3Cl)=NO2)n(-c2ccccc2)n1 (configuration not stated)	i	-0.59
CC(C)CC(=O)Nc1nc(-c2ccccc2)ns1	i	0.22
Cc1cccc(NC(=O)CCCc2nc(-c3cc4ccc(C)cc4[nH]c3=O)no2)c1	i	-0.39
CCOCCCNC(=O)C1CCN(c2ncnc3c2oc2ccccc23)CC1	i	0.48
COc1cccc(-c2nc(CS(=O)(=O)c3ccc(Cl)cc3)no2)c1OC	i	0.78
Cc1nc2cccnc2n1-c1cc(C(=O)NCc2ccc(N(C)C)cc2)ccc1Cl	i	-1.7
CN(N=O)C(=O)N[C@@H]1[C@@H](O)[C@H](O)[C@@H](CO)O[C@@H]1O	i	-2.1
Brc1ccc(CN2CCN(Cc3c[nH]c4ccccc34)CC2)cc1	i	0.21
Cn1cnc2c(C(=O)N3CCN(c4ccccn4)CC3)nn(-c3ccccc3)c2c1=O	i	0.41
COC(=O)CC1=CC(=S)Nc2ccccc2N1	i	0.84
O=C1CC(c2ccc(Br)cc2)c2cnn(-c3ccc(F)cc3)c2N1 (configuration not stated)	i	0.5
Cc1sc(-c2noc(C3CCC3)n2)cc1S(=O)(=O)N1CCCC(C(=O)Nc2cccnc2)C1 (configuration not stated)	i	-0.04

Arranged by molecular weight (lowest first): some entries from above.
molecule	Anaer choline gr	Anaer choline gr early
COc1ccc(-n2cc(C(=O)Nc3cnc4ccccc4c3)nn2)cc1	i	-0.33
CCOc1ccc(OCC)c(Nc2nc3ccccc3c3nncn23)c1	i	1.5
O=C(Cn1nc(C(=O)Nc2ccccc2)ccc1=O)Nc1cccc(Cl)c1	i	1.8
Cc1cccc(NC(=O)CCCc2nc(-c3cc4ccc(C)cc4[nH]c3=O)no2)c1	i	-0.39
O=C(Cn1cnc2ccccc2c1=O)NCC(=O)N1CCN(c2ccccn2)CC1	i	1
Cc1sc(-c2noc(C3CCC3)n2)cc1S(=O)(=O)N1CCCC(C(=O)Nc2cccnc2)C1 (configuration not stated)	i	-0.04
O=C(C1CCN(S(=O)(=O)c2ccc3[nH]c(=O)ccc3c2)CC1)N1CCN(c2ccccc2F)CC1	i	-0.48

Individual results from the results shown.
For Anaer choline gr early, O=C(Cn1cnc2ccccc2c1=O)NCC(=O)N1CCN(c2ccccn2)CC1 has the entry 1
For Anaer choline gr early, O=C(C1CCN(S(=O)(=O)c2ccc3[nH]c(=O)ccc3c2)CC1)N1CCN(c2ccccc2F)CC1 has the entry -0.48
For Anaer choline gr early, O=C1CC(c2ccc(Br)cc2)c2cnn(-c3ccc(F)cc3)c2N1 (configuration not stated) has the entry 0.5

Further entries:
molecule	Anaer choline gr	Anaer choline gr early
CCN(c1ccccc1)S(=O)(=O)c1csc(C(N)=O)c1	i	0.48
CCOC(=O)c1c(NC(=O)N2CC(CC)Oc3ccc(Cl)cc32)sc2c1CCCC2 (configuration not stated)	i	-0.17
O=C(C1CC1)N1CCc2c([nH]c3ccccc23)C1c1ccc(F)cc1 (configuration not stated)	i	-0.31
C=CCN(C(=O)c1c2c(nc3ccccc13)C(=O)N(C1CCCCC1)C2)c1ccccc1	i	-0.63
Cc1ccc(NC(=O)c2nnc(CCCC(=O)N3CCN(c4ccccn4)CC3)s2)cc1	i	0.47
COc1cccc(CCNC(=O)C2CCN(c3nc4ccc(Cl)cc4[nH]3)CC2)c1	i	0.45
COc1ccccc1Oc1ccc(-c2ccc(C(=O)NC(C)C)cc2)nn1	i	-0.67
COc1ccc(CC(=O)Nc2cccc(-c3ccc4ccccc4n3)c2)cc1	i	-0.83
CN1CCN(C(=O)C2CCCN(c3nnc4c(Cl)cccn34)C2)CC1 (configuration not stated)	i	-0.26
COc1ccc(C)cc1S(=O)(=O)N1CCc2cc3ccc(C)cc3nc21	i	-0.99
O=S(=O)(c1cc(-c2noc(C3CCCC3)n2)cs1)N1CCC2(CC1)OCCO2	i	-0.34
COc1ccc(Cn2nnc3cc(C(=O)N4CCN(c5ccccn5)CC4)ccc32)cc1	i	-1.1
Cc1ccc(-c2nc(Cn3nnc(-c4nc(-c5ccc(C)c(C)c5)no4)c3C)c(C)o2)cc1	i	-0.67
O=C(NC1CCCC1)c1cnn(-c2ccc(F)cc2)c1	i	-0.43
Cc1ccc(S(=O)(=O)N2CCC3(CC2)NCCN=C3NCc2ccccc2C)c(C)c1	i	-0.16
Cc1[nH]c(C)c(S(=O)(=O)N2CCC(C(=O)Nc3ccc(F)cc3F)CC2)c1C(=O)N1CCCCC1	i	1.1
Cc1ccc(-c2cc3ncc(C(=O)c4cc(Cl)ccc4O)cn3n2)cc1	i	-1.1
O=c1c2ccccc2n2c(=O)n(Cc3ccccc3F)nc2n1Cc1ccc(F)cc1	i	-1
CCN(CCN(C)C)c1ccc(C(=O)O)cc1NS(=O)(=O)CC	i	-0.33
COc1cccc(-n2nnc3c(N4CCN(C(=O)C5CC(=O)N(c6ccccc6)C5)CC4)ncnc32)c1 (configuration not stated)	i	0.41
CCOC(=O)c1c(S(=O)(=O)NCC(=O)Nc2ccc(F)cc2F)c(C)n(CC)c1C	i	-0.86
Cc1ccc2c(c1)OCC(CC(=O)NCCCc1ccccc1)N2C (configuration not stated)	i	0.48
Cn1c(=O)c2c(C3C(=O)Nc4ccccc43)c(-c3ccc4ccccc4c3)[nH]c2n(C)c1=O (configuration not stated)	i	-0.78
CCc1noc(-c2ccc(NC(=O)C3CC(=O)N(c4ccccc4)C3)cc2)n1 (configuration not stated)	i	-0.02
O=C1CC(c2cccc(Br)c2)c2scc(-c3ccccc3)c2N1 (configuration not stated)	i	0.78
O=C1CCCN1c1ccc(S(=O)(=O)N2CCc3ccccc3C2)cc1	i	-0.1
COc1ccc(Cn2cccc(S(=O)(=O)N3CCC(C)CC3)c2=O)cc1F	i	-1.1
CCCCn1c(=O)c2sccc2n2c(SCc3cccc(C)c3)nnc12	i	0.2
CCOc1ccc(NC(=O)NCc2nnnn2-c2ccc(OCC)cc2)cc1	i	0.77
CCOC(=O)c1c(C)n(-c2ccc(C)cc2)c2ccc(OCC(O)CN3CCCCC3)cc12 (configuration not stated)	i	0.71
CCc1ccc(C(=O)N2CCN(c3cc(-c4ccc(C)cc4)ncn3)CC2)cc1	i	-0.97
COc1cccc(CN2CCN(Cc3ccc(OC)cc3OC)CC2)c1	i	-0.2
CC1(C(=O)NC2CCCCC2)COc2nc(-c3ccccc3)sc2C(=O)N1Cc1ccccc1 (configuration not stated)	i	0.26
COC(=O)Cn1c(C)cc(=O)n2nc(-c3ccc(Cl)cc3)nc12	i	-0.04
CC(C)n1cnc(S(=O)(=O)N2CCCC(C(=O)Nc3ccc4c(c3)OCCO4)C2)c1 (configuration not stated)	i	0.23
CC(C)(C)NC(=O)CSc1nc2nc[nH]c2c(=O)[nH]1	i	0.73
O=C(Nc1ccccc1-c1ccc2ccccc2n1)c1c(F)cccc1F	i	0.39
COc1ccccc1Oc1cc(-c2cccc(C(=O)NCc3ccc(C)cc3)c2)ncn1	i	1.1
Cc1cccc(-c2noc(-c3cc(C4CC4)[nH]n3)n2)c1	i	1.4
O=C(CSc1nnc(NC(=O)NC2CCCCC2)s1)NCc1ccccc1	i	-0.92
Cc1ccc(NC(=O)CCS(=O)(=O)c2ccc3c(c2)oc(=O)n3C)cc1N(C)C	i	-0.08
Cc1sc2ncc(C(=O)NC(C)(C)C)c(=O)n2c1C	i	0.34
CCN[C@H]1C[C@H](C)S(=O)(=O)c2sc(S(N)(=O)=O)cc21	i	-0.2&0.26
Cc1cc(C(=O)N2CCCC2c2ccc(Cl)cc2)on1 (configuration not stated)	i	-0.85
CCn1c(C)c(CCC(=O)NCc2ccc3c(c2)OCO3)c(=O)n2nc(-c3ccccc3OC)cc12	i	0.74
CC(O)c1ccc(-c2ccc(CNCCCn3ccnc3)o2)cc1 (configuration not stated)	i	0.13
CCN(Cc1ccccc1)c1ncc(C(=O)O)cc1NS(=O)(=O)c1ccc(OC)cc1	i	-0.57
Cc1cc(CN(C2CCCCC2)S(=O)(=O)c2cccc(F)c2)c(C)n1-c1ccccc1	i	0.27
CCOc1ccccc1CNC(=O)C1CCN(c2ncccc2-c2nc(-c3cccc(C)c3)no2)CC1	i	1.2
Cc1nc(-c2cccc(F)c2)sc1CCNC(=O)c1ccc(C(C)(C)C)cc1	i	-0.12

More records
molecule	Anaer choline gr	Anaer choline gr early
COCCNC(=O)C1CCCc2c1[nH]c1ccccc21 (configuration not stated)	i	0.19
Cc1ccc(-c2csc(-c3nc(-c4ccc5c(c4)OCO5)cs3)n2)cc1C	i	-0.64
Cc1cccc(OC(=O)c2cc(-c3ccc4c(c3)OCCO4)on2)c1C	i	0.94
Cc1ccc(-c2c(C(F)(F)F)nn3c(N4CCN(c5ccccn5)CC4)cc(C)nc23)cc1	i	0.02
O=C1CC(c2cc(Br)ccc2F)c2cnn(-c3nc4ccccc4s3)c2N1 (configuration not stated)	i	-0.05
CN(Cc1ccc(F)cc1)Cc1cc(=O)n2ccccc2n1	i	-0.96
CCCCNC(=O)c1cccc(-c2cc(Oc3ccc(OC)cc3)ncn2)c1	i	0.86
CC(CCc1ccco1)NC(=O)C1CCc2nc(N3CCCCC3)ncc2C1 (configuration not stated)	i	0.94
CCn1c(=O)c2c(C(=O)NCCCN3CCN(C)CC3)cc(=O)n(CC)c2n(C)c1=O	i	1.1
CCC(C)C(=O)OC1CC(O)C=C2C=CC(C)C(CCC(O)CC(O)CC(=O)O)C21 (configuration not stated)	i	-0.15
Cn1c(=O)c2c(-c3ccc(Cl)cc3)n(-c3ccc(Br)cc3)cc2n(C)c1=O	i	0.06
CC(NC(=O)c1cc2c(-c3ccc(Cl)cc3)nn(C)c2s1)c1ccccc1 (configuration not stated)	i	0.18
O=C(Nc1ccc(Cl)cc1)Nc1ccc(F)c(-c2nnc(-c3ccccc3)o2)c1	i	0.28
CCCNC(=O)c1cccnc1Oc1ccc(NS(=O)(=O)c2ccc(Br)cc2)cc1	i	0.06
COc1ccc(-c2cc(C(=O)NCc3cccc(OC)c3)c3ccccc3n2)cc1	i	2.2
Cc1cc(C)c(S(=O)(=O)Nc2cnc(N3CCNCC3)c(C(=O)NCC3CCCO3)c2)c(C)c1 (configuration not stated)	i	-0.1
COc1ccc(NC(=O)Cn2nc3c(Sc4ccccc4)nc4ccccc4n3c2=O)cc1	i	0.22
O=C(CN1C(=O)c2ccccc2C1=O)Nc1ncn(Cc2ccc(Cl)cc2)n1	i	0.71
O=C(NCc1ccc2c(c1)OCO2)C1CCN(C(=O)c2ccc(-c3noc(C4CC4)n3)cc2)CC1	i	0.01
O=C(CN1CCSc2ccccc21)NC1CCCC1	i	-0.21
CC(C)C(=O)Nc1ccc(SCc2cc(=O)n3c(ncn3C(C)C)n2)cc1	i	-0.11
CC(C)NC(=O)c1nsc(C(=O)NC2CCCC2)c1N	i	-1.1
CC(=O)N1CCOc2cc(S(=O)(=O)N3CCCC3c3c(C)noc3C)ccc21 (configuration not stated)	i	0.35
O=C(COc1ccc(-c2cnc3ccccc3n2)cc1)NCc1ccccn1	i	-0.26
Cn1c(=O)c2c3c(cnc2n(C)c1=O)C(=O)CC(C)(C)C3	i	-0.27
Cc1ccc(-c2noc(-c3nn(-c4ccccc4)c(=O)c4ccccc34)n2)cc1	i	0.6
O=C1CC(c2ccccc2OCCc2ccccc2)c2cnn(-c3nc4ccccc4s3)c2N1 (configuration not stated)	i	-1.4
CCOC(=O)CNC(=O)CSc1nnc(NC(=O)Nc2ccc(C)cc2)s1	i	0.31
Cc1ccc(S(=O)(=O)NC(C)c2nc(Cn3c(C)nc4ccccc4c3=O)no2)cc1 (configuration not stated)	i	0.49
Cc1ccccc1C(=O)Nc1ccc2c(c1)CC(=O)N2C	i	-2.3
CCCn1c(=O)oc2cc(NC(=O)Nc3ccc(C)cc3)ccc21	i	-1.7
Cc1ccc2nc(CNC(=O)c3nc(-c4ccc(N5CCCCC5)cc4)no3)[nH]c2c1	i	-0.38
CCn1ncc(C2CC(=O)Nc3c2c(C)nn3-c2nc3ccccc3[nH]2)c1C (configuration not stated)	i	0.23
Cc1ccc(-c2cc3ncc(C(=O)c4cc(C)ccc4O)cn3n2)cc1	i	-1.6
COc1nc2ccccc2nc1C(=O)Nc1ccc(Br)c(C)c1	i	1.9

Some of the compounds tested. The share of hits here may be higher or lower than overall.
